Mtb growth – Mycobacterium tuberculosis H37Rv growth inhibition, cell based, confirmatory dose response (AID 1949) | most inactive calls were filed without a number and no value below 0 was filed | one-dose inhibition, % at 10 µg/mL; IC50 in µg/mL for titrated hits | hit rate 1.6% among 100,000;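 active = confirmed in a dose series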;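 also: bacteria grown 7 days with compound before Alamar blue readout; 0% = untreated bacteria and 100% = reference antibiotic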
An asterisk follows results filed as active; i = inactive.

SMILES	Mtb growth
Cc1cc(OCC(=O)Nc2ccccc2F)cc(C)c1Cl	i
COC(=O)CNC(=O)c1cn(-c2ccccc2)nc1-c1cccc(Br)c1	i
CCn1c(CNC(=O)Cc2ccc(OC)cc2)nnc1SCC(=O)Nc1nccs1	i
O=C(Nc1ccc2c(c1)Cc1cc(NC(=O)c3cccs3)ccc1-2)c1cccs1	1.5%
CCOc1ccccc1/C=C(\C#N)c1nc2ccccc2n1C	30.0%
CC(=O)c1cc2c(cc1NC(=O)CSc1nc3cc(Cl)ccc3s1)OCO2	i
CC1CCc2ccc(F)cc2N1S(=O)(=O)c1cccs1 (stereo not drawn)	i
O=C(OCc1ccc(F)cc1)c1cccc2ccccc12	i
CS(=O)(=O)N1CCN(S(=O)(=O)c2ccccc2)CC1	i
COc1ccc(-c2csc(Nc3ccc(O)cc3C)n2)cc1OC	1.8%
CCOC(=O)c1ccc(-n2ncc(C(=O)OCC)c2N)cc1	1.6%
CC(C)(C)c1ccc(OCCNC(=O)c2cccnc2)cc1	i
COc1ccc(OC)c(C2C3=C(CCCC3=O)Nc3ncnn32)c1 (stereo not drawn)	i
O=S(=O)(c1ccc(Br)s1)N1CCN(c2cccc(Cl)c2)CC1	i
Fc1ccc(CSc2nnc(-c3cccs3)n2-c2ccccc2)cc1	i
Cc1cc(OCC(=O)NCCCN2CCOCC2)cc(C)c1Br	i
COc1cc(OC)c(NC(=O)c2cccc(OC)c2OC)cc1Cl	0.5%
CCCN1CCN(C(=S)NCc2ccc(Cl)cc2)CC1	i
N#Cc1ccc(Cn2cc(C(=O)c3cccs3)c3ccccc32)cc1	17.8%
CC1(C)CC(=O)c2cc(C#N)c(SCc3ccccc3)nc2C1	i
COc1ccc(CCNC(=O)c2cnn3cccnc23)cc1OC	i
CCOc1ccc(NC(=O)CC2S/C(=N\N=C\c3ccc(C)o3)NC2=O)cc1 (stereo not drawn)	i
COc1cccc(C(=O)Nc2ccc(-c3ccc(NC(=O)c4cccc(OC)c4)c(C)c3)cc2C)c1	i
O=C(Nc1nnc(-c2cccc(F)c2)s1)C1CCCCC1	i
CCCC(=O)Nc1ccc(C(=O)NCCCn2ccnc2)cc1	4.6%

A second format for 3 compounds above:
Cc1cc(OCC(=O)NCCCN2CCOCC2)cc(C)c1Br
  Mtb growth: i
COc1ccc(OC)c(C2C3=C(CCCC3=O)Nc3ncnn32)c1 (stereo not drawn)
  Mtb growth: i
COc1ccc(-c2csc(Nc3ccc(O)cc3C)n2)cc1OC
  Mtb growth: 1.8%

Given with each value named: part of the list above
> CCCN1CCN(C(=S)NCc2ccc(Cl)cc2)CC1
  Mtb growth = i

> N#Cc1ccc(Cn2cc(C(=O)c3cccs3)c3ccccc32)cc1
  Mtb growth = 17.8%

> CC1(C)CC(=O)c2cc(C#N)c(SCc3ccccc3)nc2C1
  Mtb growth = i

> COc1ccc(CCNC(=O)c2cnn3cccnc23)cc1OC
  Mtb growth = i

Following part:
SMILES	Mtb growth
CCN(CC)c1ccc(NC(=O)C(c2ccccc2)c2ccccc2)c(C)c1	i
COc1cc(N(C)C)c(NC(C)=O)cc1C(=O)O	3.6%
Cc1cc(Br)c(NC(=O)COc2ccc(C=O)cc2)cc1C	i
C=CCn1c(SCc2nc3ccccc3[nH]2)nc2ccccc2c1=O	0.3%
COC(=O)c1ccc(Cn2cc(/C=C(/C#N)c3nc4ccccc4[nH]3)c3ccccc32)o1	i
COc1cccc(N(CC(=O)N2CCC(C(N)=O)CC2)S(C)(=O)=O)c1	i
CCOC(=O)c1c(NC(=O)CSc2nnc(-c3ccccc3)o2)sc(C)c1C	i
CN1C(=O)CN=C(c2ccccc2Cl)c2cc(Br)ccc21	i
COc1ccc(CCNC(=S)Nc2cc(OC)c(OC)c(OC)c2)cc1OC	i
Cc1nnc(SCc2nc(N)nc(Nc3ccc4ccccc4c3)n2)s1	i
CCC(C(=O)Nc1ccc(S(=O)(=O)N2CCCCC2)cc1)c1ccccc1 (stereo not drawn)	1.2%
O=C1CC(N2CCN(Cc3ccccc3)CC2)C(=O)N1c1cccc(F)c1 (stereo not drawn)	i
COc1cc(-c2nc3ccc(Br)cc3c(=O)o2)ccc1OC(C)=O	i
CCOc1ccc(-c2nc(-c3ccncc3)no2)cc1OCC	i
O=C(c1ccccc1-c1ccccc1)N1CCN(c2ccccc2F)CC1	0.2%
CCOC(=O)c1c(NC(=O)c2cc(OCC)c(OCC)c(OCC)c2)sc(C(C)=O)c1C	i
COC(=O)COc1ccc(S(=O)(=O)N2CCCC2)cc1Cl	i
CN(C)c1ccc(C2C=C(c3ccc(F)cc3)Nc3nnnn32)cc1 (stereo not drawn)	i
C=CCNC(=S)Nc1cc(Cl)ccc1Oc1ccccc1	i
O=C(CS(=O)(=O)Cc1ccccc1)Nc1ccccn1	i
CCOC(=O)C1=C(C)NC2=C(C(=O)CC(c3ccccc3)C2)C1c1ccsc1 (stereo not drawn)	30.3%
Cc1ccc(C)c(-c2csc(NC(=O)c3cccnc3)c2C#N)c1	i
Cc1ccc2nsnc2c1S(=O)(=O)NC(C)c1ccccc1 (stereo not drawn)	3.4%
CCc1nc(SCC(=O)Nc2c(Cl)cccc2Cl)c(C#N)c(C(F)(F)F)c1C	1.6%
CCOC(=O)C1CCN(C(=O)CN(c2ccc(Br)cc2)S(C)(=O)=O)CC1	i
Later entries.
SMILES	Mtb growth
CCc1cccc2c(C(=S)N3CCOCC3)c[nH]c12	i
CCCCC(=O)Nc1sc(C(C)=O)c(C)c1C(=O)OCC	i
c1ccc(CCNc2nc(-c3ccncc3)cs2)cc1	5.8%
Oc1cccc(Nc2nc(NCc3ccccc3)c3ccccc3n2)c1	0.98µg/mL*
CCOc1ccc(NC(=O)CSc2nnc(-c3ccc(C)cc3)n2CC)cc1	i
Cn1c(SCC(=O)Nc2ccccc2F)nnc1-c1ccc(Cl)cc1	i
CC(=O)Nc1ccc(S(=O)(=O)Nc2nc3c(s2)CCCC3)cc1	i
Cc1ccc(S(=O)(=O)Nc2ccc(NS(=O)(=O)c3ccc(F)cc3)cc2)cc1	i
Nc1ccc(-c2cnc3ccccc3n2)cc1	i
COc1c(C)cccc1C(=O)Nc1ccccc1C(=O)Nc1cccc(C)n1	9.9%
O=C(CN1c2cccc3cccc(c23)S1(=O)=O)NCc1ccccc1	i
N#C/C(=C/c1cccn1-c1ccc(C(=O)O)cc1)c1nc2ccccc2[nH]1	i
CCCCC(=O)Nc1cc(S(=O)(=O)N(CC)CC)ccc1OC	0.1%
CCOc1ccc(NC(=O)c2cc3c(n(-c4ccc(Cl)cc4)c2=O)CCCC3=O)cc1	i
S=C(Cc1cccc2c1[nH]c1ccc(Br)cc12)N1CCOCC1	i
O=C(O)c1ccc(COc2ccc(Cl)cc2CO)cc1	i
Cc1cc(Cl)ccc1NC(=O)CN(C)S(=O)(=O)c1ccc(Br)cc1	i
Cc1onc(-c2c(Cl)cccc2Cl)c1C(=O)NC(=S)N1CCN(c2ccccn2)CC1	i
CC(=O)C1=C(C)N(Cc2ccccc2)C(=O)C1(NC(=O)C1CC1)C(F)(F)F (stereo not drawn)	i
COc1ccccc1-n1nnnc1SCC(=O)Nc1ccccc1C	0.4%
c1ccc(NCCCNc2ccccc2)cc1	7.1%
O=C(Cc1ccccc1)N1CCN(C(=O)c2cccs2)CC1	i
Cc1cc(C)cc(C(=O)NC(=S)Nc2ccccc2F)c1	i
Cn1cc(CNC(=O)Nc2ccc3c(c2)OCO3)cn1	i
CCn1ccnc1C(O)c1ccc(OC)cc1 (stereo not drawn)	i
(cont.)
SMILES	Mtb growth
CC(=O)c1ccc(NC(=O)Nc2ccc3c(c2)nc(C)n3C)cc1	i
CC(C(=O)NCCc1ccccc1)N1C(=O)c2ccccc2C1=O (stereo not drawn)	i
COc1cc(NC(=O)c2ccccc2Oc2ccccc2)c(OC)cc1NC(=O)c1ccccc1	i
CCOC(=O)C1=C(C)N=C2SCCC(=O)N2C1c1ccc(F)cc1 (stereo not drawn)	i
COc1cc(-c2ncnn2-c2ccc(Cl)cc2)ccc1O	1.7%
c1nc(NC2CCCC2)c2c3c(sc2n1)CCCC3	43.8%
O=S(=O)(Nc1ccccc1Cl)c1ccc(Br)s1	i
COc1ccc(-n2c(C)nc3c(Cl)cc(Cl)cc3c2=O)cc1	i
O=C(Cn1nnc(-c2ccccc2Cl)n1)Nc1ccc2c(c1)CCC2	i
CC(C)c1ccc(NC(=O)CSc2nnc(Cc3ccccc3)n2C)cc1	i
O=C1N(c2ccccc2)C2CS(=O)(=O)CC2N1c1ccc(Cl)c(Cl)c1 (stereo not drawn)	i
CC12CCC(C(=O)Nc3ccc(Br)cn3)(OC1=O)C2(C)C (stereo not drawn)	i
Cn1c(=O)n(Cc2ccccc2Cl)c(=O)c2c1[nH]c(=S)n2C	0.5%
O=C1c2ccccc2C(O)(Cc2ccccc2)N1Cc1cccs1 (stereo not drawn)	i
CNC(=S)Nc1ncn(Cc2cccc(F)c2)n1	i
CC1=C(C(=O)Nc2ccccc2)C(c2ccccc2[N+](=O)[O-])NC(=O)N1 (stereo not drawn)	i
CC(=O)C1=C(C)NC(C)=C(C(C)=O)C1c1ccc(-c2ccccc2Cl)o1	i
COc1cccc(C(=O)NCCC2=CCCCC2)c1OC	i
Cc1ccc(S(=O)(=O)N(CC(=O)NCC2CCCO2)Cc2cccc(Cl)c2)cc1 (stereo not drawn)	i
Cc1ccc(C(=O)Nc2cc(C(F)(F)F)ccc2N2CCOCC2)cc1[N+](=O)[O-]	i
CCCOc1cccc(C(=O)Nc2ccc(N3CCN(C)CC3)cc2)c1	38.0%
Cc1cc(C)c(NC(=O)CN2CCN(Cc3ccccc3)CC2)c(C)c1	i
COc1ccccc1C(=O)Nc1ccc(S(=O)(=O)Nc2cccc(C)c2)cc1	i
Cc1ccc2nc(SCC(=O)Nc3ccc4c(c3)OCCO4)[nH]c2c1	i
O=C(CSc1nnc(-c2ccco2)o1)Nc1cccc(Cl)c1	i
Later entries
SMILES	Mtb growth
COc1ccc(NC(=O)C2=C(C)NC3=C(C(=O)CCC3)C2c2cc(OC)ccc2OC)cc1 (stereo not drawn)	i
COc1cc2c3c(c1)-c1c(sn(-c4cccc(C)c4C)c1=S)C(C)(C)N3C(=O)C2=O	40.0%
O=C(Cc1ccc(F)cc1)Oc1ccc(Br)cc1C(=S)N1CCCC1	i
COC(=O)C1CC(=O)N(c2ccc(F)cc2)C1 (stereo not drawn)	i
CC(C(=O)NC1CCCCC1)(c1ccccc1)c1ccccc1	0.1%
CC(NS(=O)(=O)c1ccc(Br)cc1)C(N)=O (stereo not drawn)	i
O=C(Nc1cc(Cl)cc(Cl)c1)C(=O)NC1CCCC1	i
CC(=O)c1cccc(NC(=O)NCc2cccnc2)c1	i
COC(=O)C1=C(C)Nc2ncnn2C1c1ccc(C(=O)O)cc1 (stereo not drawn)	i
Cc1cc(C)nc(SCC(=O)Nc2nc(-c3ccccc3)c(-c3ccccc3)o2)n1	i
O=C(O)C1C2C=CC(O2)C1C(=O)Nc1ccc(Br)cc1 (stereo not drawn)	i
O=C(NC1(C(F)(F)F)C(=O)Nc2c1c(=O)[nH]c(=O)n2-c1ccccc1)c1cccs1 (stereo not drawn)	i
COc1ccc(S(=O)(=O)NCCO)cc1-c1nnc2c3ccccc3c(C)nn12	i
O=C(NC(=S)Nc1cc(C(F)(F)F)ccc1N1CCOCC1)c1cc2ccccc2o1	i
Cc1ccc2[nH]c(O)c(N=NC(=O)COc3ccc(C(C)(C)C)cc3C)c2c1	i
COc1c(C)cc(S(=O)(=O)N2CCN(C34CC5CC(CC(C5)C3)C4)CC2)c(C)c1C	i
O=C(COc1ccccc1-c1ccccc1)c1ccccc1	2.1%
O=C(CC12CC3CC(CC(C3)C1)C2)NC(=S)Nc1ccc(-c2nc3cc(Cl)ccc3o2)c(O)c1	i
Cc1cc([N+](=O)[O-])ccc1NC(=O)C1C2C=CC(C2)C1C(=O)O (stereo not drawn)	i
COc1ccc(-c2nnc(SCC(=O)O)n2C)cc1OC	i
Cc1ccc(Sc2ccc(C=O)o2)cc1	2.15µg/mL*
COc1cc(C(=O)Nc2ccc(F)cc2)cc(Cl)c1OC	i
Cc1cccc(C(=O)N2CC3(C)CC2CC(C)(C)C3)c1 (stereo not drawn)	i
COC(=O)Cc1c(C)c2ccc(OCc3ccc(OC)cc3)c(C)c2oc1=O	5.8%
O=C1CC(NC(=O)C(F)(F)F)=NN1c1ccccc1	0.3%
Going on with the list.
SMILES	Mtb growth
O=C(O)C1CCN(C2CC(=O)N(c3cccc(Cl)c3)C2=O)CC1 (stereo not drawn)	i
Cc1ccc(NC(=S)N2CCCC(CO)C2)c(C)c1 (stereo not drawn)	4.1%
Cc1ccccc1C(=O)N1CCN(c2ccc(NC(=O)c3cc4ccccc4o3)cc2)CC1	i
CCn1c(Cc2cccc3ccccc23)nnc1SCC(=O)Nc1ccc(Oc2ccccc2)cc1	11.8%
CCOc1cc(C(=O)Nc2ncccn2)cc(OCC)c1OCC	3.1%
O=C(CCC1CCCCC1)Nc1cccc(Cl)c1Cl	i
CC(=O)Nc1ccc(S(=O)(=O)Nc2ccc(S(=O)(=O)Nc3cc(C)cc(C)c3)cc2)cc1	4.7%
COc1cc(NC(=S)NCC2CCCO2)cc(OC)c1OC (stereo not drawn)	2.2%
Cc1cc(=O)[nH]c(SCC(=O)NC(C)c2ccccc2)n1 (stereo not drawn)	i
COc1cccc(S(=O)(=O)NCc2ccc(C(=O)N3CCCC3)cc2)c1	i

6 entries drawn at random from the list so far, as already listed:
SMILES	Mtb growth
CCn1c(Cc2cccc3ccccc23)nnc1SCC(=O)Nc1ccc(Oc2ccccc2)cc1	11.8%
O=C(O)C1CCN(C2CC(=O)N(c3cccc(Cl)c3)C2=O)CC1 (stereo not drawn)	i
Cc1ccc(NC(=S)N2CCCC(CO)C2)c(C)c1 (stereo not drawn)	4.1%
Cc1ccccc1C(=O)N1CCN(c2ccc(NC(=O)c3cc4ccccc4o3)cc2)CC1	i
CC(=O)Nc1ccc(S(=O)(=O)Nc2ccc(S(=O)(=O)Nc3cc(C)cc(C)c3)cc2)cc1	4.7%
COc1cccc(S(=O)(=O)NCc2ccc(C(=O)N3CCCC3)cc2)c1	i

Compound activity (PubChem)

This is a subset; count on the stated rates, not on these rows.
